# Vaccinia Venus: inhibitors of vaccinia virus (Venus reporter) | Vaccinia virus Venus reporter expression, fluorescence | Potency, µM (titrated, usually from 36.5 µM), for inactives: at the highest dose activity change, negative = inhibition, hits mostly inhibitors | actives 0.46% (n = 330,000); active means well fitted inhibition curve with a large enough effect; inconclusive means small, poorly fitted or top-dose-only effect; inactive means no such curve, though single readings can be large or run the other way; tested in A549 cells; further: nearly all actives have a fitted effect of over 30% in size; inactives centre near -10
# VACV mCherry inh: vaccinia inhibition (mCherry reporter). Potency, µM (titrated, usually from 36.5 µM), for inactives: at the highest dose activity change, negative = inhibition, hits mostly inhibitors. Vaccinia virus mCherry reporter infection, fluorescence; about a quarter of the inactives have no number. actives 0.63% (n = 310,000); active = well fitted inhibition curve with a large enough effect; inconclusive = small, poorly fitted or top-dose-only effect; inactive = no such curve, though single readings can be large or run the other way; tested in A549 cells; further: nearly all actives have a fitted effect of over 35% in size; inactives centre near -10
# * = called active by the depositor; i = inactive; ? = inconclusive; . = no result given; & = joins results of further samples; [ ] = remark or other dose. On the % scale 0 is the no-effect control and ±100 the full control effect; potency means the concentration at half of the fitted maximal effect. Random draw from the library. About 0.82% of those tested had a hit in this group.
SMILES,Vaccinia Venus,VACV mCherry inh
CCn1c2ccccc2c2cc([N+](=O)[O-])ccc21,-13%,-14%
O=C(CC1(O)C(=O)N(Cc2ccc3c(c2)OCO3)c2ccccc21)c1ccccc1 (stereo unspecified),?,.
O=C1c2ccccc2C(=O)N1CCCCSc1nnc2c(Cl)cc(Cl)cn12,-30%,.
O=C(Cn1cnc(S(=O)(=O)N2CCCC2)c1)Nc1ccccc1,-13%&-5%,-8%
CC(C)(C)C(=O)Nc1c2c(nc3c1CCC3)CCCC2,1%,.
Cc1cccn2c(=O)nc(SCC(=O)N3CCCCC3)nc12,-4%,2%
CCOCCCNS(=O)(=O)c1ccc2c(c1)OCCO2,-5%,-10%
Cc1ccc(NC2CC(=O)N(c3ccc(C)cc3)C2=O)cc1 (stereo unspecified),-18%,i
CCOCc1c(C(=O)OCC(=O)Nc2ccc(C)c(S(=O)(=O)N(C)C)c2)oc2ccccc12,-13%,-18%
CC(=O)c1cccc(OCc2cc(C(=O)NCc3nc(C)c(C)s3)no2)c1,-7%,i
CCc1cc(C(=O)N2CCCC(CNC(=O)c3ccc(-c4ccccc4)cc3)C2)no1 (stereo unspecified),-8%,-10%
CC(=O)Oc1ccccc1Cn1c(C)c(C(=O)NCc2ccccc2C(F)(F)F)sc1=O,6%,38%[activator]
COc1ccccc1-n1ccnc(SCC(=O)NCCc2ccccc2)c1=O,-14%,i
O=C1COc2c1ccc(O)c2O,0%,-32%
CC(=O)Nc1ccc(S(=O)(=O)NCCC(=O)NCc2ccco2)cc1,-4%,i
COc1ccc(Cn2c(C(=O)O)c(CNCc3cccs3)c3ccc(C)cc32)cc1,-21%,-24%
CN(Cc1ccccc1)C(=O)c1[nH]cnc1C(=O)Nc1nccs1,-10%,-15%
Cn1c(SCc2cccc(F)c2)nc2c([nH]c3ccccc32)c1=O,?,?
Cc1ccc(Cl)cc1NC(=O)COC(=O)C12CC3CC(CC(C3)C1)C2,-24%,-4%
Cn1nnnc1SCC(=O)NNC(=O)c1ccc(F)cc1,-4%,-3%
CC1CCN(C(=O)CSc2nnc(-c3cccnc3)o2)CC1,5%,0%
CC1(C(=O)NS(=O)(=O)c2ccc(C#N)cc2)CCN1C(=O)c1ccccc1CCc1ccccc1 (stereo unspecified),-3%,19%
CCCCCc1nc2sc3c(c2c(=O)n1N)CCC3,6%,-5%
CCc1ccccc1N(C(=O)Cn1nnc2ccccc21)C(C(=O)NCCOC)c1ccco1 (stereo unspecified),-8%,i
Cc1cc(C)c2cc(C(=O)N3CCN(c4ncccc4C(F)(F)F)CC3)[nH]c2c1,-23%,?
COc1ccc(C(=O)Nc2nncs2)c(OC)c1,-10%,-11%
Cc1cc(NC(=O)COn2nnc3ccccc32)no1,-27%,.
Cc1cc(OCC(=O)NC(C)C)cc(C)c1Br,-6%,-6%
O=C(NCC1(N2CCCCC2)CCCCC1)C1CC(=O)N(c2ccc3c(c2)OCCO3)C1 (stereo unspecified),-10%,i
COc1ccc(C=C(C#N)c2ccc(OC)cc2)cc1,-23%,-9%
COc1ccc2[nH]c(=O)c(CNc3cc(C)ccc3C)cc2c1,-14%,-6%
O=C(O)C1Cc2[nH]cnc2C(c2ccccc2O)N1 (stereo unspecified),-3%,-8%
O=C(c1ccc2ccccc2n1)N1CCN(c2ccccc2)CC1,-5%,0%
C=CCOc1ccc(/C=N/n2cncn2)cc1OC,-6%,-11%
COc1ccc([N+](=O)[O-])c(OC)c1C(=O)NC(=O)Nc1nc(C)nc(C)n1,-5%,-10%
C=C(C)C1CC=C(C)/C(=N/NC(=S)Nc2ccccc2)C1 (stereo unspecified),-18%,i
S=c1nc2ccccc2c2nc(-c3ccccc3)[nH]n12,-16%,-5%
CC(=O)Nc1ccc(S(=O)(=O)NCCc2ccccn2)cc1,-2%,i
Cc1ccc2nc3ccc(N4CCN(C)CC4)nn3c(=O)c2c1,-5%,-3%
O=C(Nc1ccc(C(=O)N2CCCc3ccccc32)cc1)c1cccs1,-14%,i
CCCCC(CC)COC1(c2ccccc2)OC(=O)c2ccccc21 (stereo unspecified),-4%,-8%
COc1cc2[nH]c(=O)n(CCCC(=O)N3CCN(c4cccc(C(F)(F)F)c4)CC3)c(=O)c2cc1OC,-12%,-22%
CSc1cccc(NC(=O)C2CCN(C(=O)c3cnn(-c4ccccc4)c3-n3cccc3)CC2)c1,-20%,-23%
Cc1cc(C)cc(NC(=O)CN2C(=O)c3ccccc3C2=O)c1,2%,-14%
Cc1ccccc1-n1c(SCC(=O)NCC2CCCO2)nc2c([nH]c3ccccc32)c1=O (stereo unspecified),-5%,-12%
Cc1onc(-c2ccccc2Cl)c1C(=O)Nc1nc2ccc(S(C)(=O)=O)cc2s1,?,?
COc1cc(/C(C)=N/NC(=O)c2cccc(S(=O)(=O)N3CCCC3)c2)cc(OC)c1OC,-13%,-1%
CC1CCN(C2=NC(=O)/C(=C/c3cccc(O)c3)S2)CC1,-8%,-31%
O=C(c1cc(C2CC2)nn1-c1ccccc1)N1CCN(Cc2ccccc2F)CC1,-15%,i
CCn1c(O)c(C=C2N=c3ccccc3=N2)sc1=S,6%,i
CSC1=NCCN1C(=O)c1ccc2c(c1)OCO2,-11%,-8%
COc1cc(NC(=O)C2=CC(c3ccc(F)cc3)=NS(=O)(=O)N2C)cc(OC)c1OC,-13%,-3%
CCCC1C(c2ccco2)NC(c2ccco2)CC1(C)O (stereo unspecified),-13%,.
COc1ccc(-c2nnc(NC(=O)c3ccc(S(=O)(=O)N(C)CC4CCCO4)cc3)o2)c(OC)c1 (stereo unspecified),-18%,-20%
COCCNc1ccc([N+](=O)[O-])cc1C(=O)Nc1cccc(C)n1,9%,-3%
COc1cccc(/C=C(\C#N)c2nc3ccccc3c(=O)[nH]2)c1OC,8%,-3%
CCC(CC)NC(=O)c1cccc(Br)c1,-7%,0%
CCC(SC1=NCCS1)C(=O)Nc1nnc(-c2ccccc2OC)s1 (stereo unspecified),?,?
CCOC(=O)c1c(N2CCCCC2)c2ccccc2[nH]c1=O,-29%,.
CCN(CC)c1ccc(C=Nc2cc(C)ccc2C)c(O)c1,-13%,-2%
# Next compounds follow.
SMILES,Vaccinia Venus,VACV mCherry inh
COCCNC(=O)CSc1c2c(nc3cc(Cl)ccc13)CCCC2,-2%,10%
O=C(C1=C[C@@H](c2ccc(Br)cc2)C[C@@H](OCc2ccc(CO)cc2)O1)N1CCOCC1,-17%,-4%
CC(C)OC(=O)Cn1nnc2c(cnn2-c2ccccc2)c1=O,-14%,.
O=C(NCCS(=O)(=O)N1CCN(c2ccc(F)cc2)CC1)C1CC(=O)N(c2ccccc2)C1 (stereo unspecified),-16%,-15%
CCOC(=O)C1C(=O)N(C(=O)c2cncc(Br)c2)CC1c1ccccc1 (stereo unspecified),-5%,-11%
Cc1nc2cc3c(=O)n(C)cnc3cc2n1Cc1ccccc1,-20%,i
Cc1ccc2nc(-c3ccsc3)c(Nc3ccc(C(C)C)cc3)n2c1,4%,-11%
O=C(CSCc1c(Cl)cccc1Cl)NCc1cccnc1,-10%,-19%
CCn1c(=O)n(CC)c2cc(N3CCCC3)c(NC(=O)Nc3cc(C)cc(C)c3)cc21,?,?
O=C(NCCc1ccc(Cl)cc1)C1CCCN(c2ncnc3c2nc2n3CCCCC2)C1 (stereo unspecified),-13%,-15%
Cc1cc(C(=O)Nc2ccccc2C#N)n(-c2ccccc2)n1,4%,-5%
O=S(=O)(O)c1nnc2sc3ccccc3n12,-7%,i
COc1ccccc1CNS(=O)(=O)c1c(C)cc(C)cc1C,-5%,?
COc1ccc(NC(=O)COC(=O)c2ccncc2)c(OC)c1,-8%,-1%
Cc1ccc(C)c(-n2sc3ccc(F)cc3c2=O)c1,?,?
O=C(c1cccc([N+](=O)[O-])c1)N1c2nc(-c3ccco3)nn2C2(CCCCC2)[C@@H]2CCCC[C@@H]21,-14%,-6%
COc1ccc(CCNC(=O)CSc2nc3scc(-c4ccccc4)c3c(=O)[nH]2)cc1,-19%,-24%
Cc1nc2ccccc2n1Cc1n[nH]c(=S)n1-c1ccc(Cl)cc1,-19%,0%
CCCc1cc(C(=O)Nc2ccc(F)c(Cl)c2)no1,7%,-10%
CCOC(=O)c1c(NC(=O)COC(=O)c2ncc(Cl)c(Cl)c2Cl)sc(C(=O)N(C)C)c1C,-11%,i

# 4 entries from above, ordered by count of non-hydrogen atoms, falling.
SMILES,Vaccinia Venus,VACV mCherry inh
CCOC(=O)C1C(=O)N(C(=O)c2cncc(Br)c2)CC1c1ccccc1 (stereo unspecified),-5%,-11%
Cc1nc2ccccc2n1Cc1n[nH]c(=S)n1-c1ccc(Cl)cc1,-19%,0%
CC(C)OC(=O)Cn1nnc2c(cnn2-c2ccccc2)c1=O,-14%,.
O=C(CSCc1c(Cl)cccc1Cl)NCc1cccnc1,-10%,-19%

# Continuation:
SMILES,Vaccinia Venus,VACV mCherry inh
COc1ccc(N2CC(C(=O)NCCC3=CCCCC3)CC2=O)c(OC)c1 (stereo unspecified),-13%,-9%
CN(c1cc2c(c3c1ccn3C)C1CCC2O1)C1CCCCC1 (stereo unspecified),-23%,10%
Nc1ccc(Oc2ccc(Br)cc2)cc1,-17%,?
CCNc1nc(N)c(C(=O)c2ccc(Cl)s2)s1,-66%,?
CCN(CC(=O)Nc1c(F)cccc1F)C(=O)CCN1C(=O)C2CC=CCC2C1=O (stereo unspecified),0%,-10%
Cn1c(=O)n(C)c2cc(/C=N/NC(=O)c3ccc(Cl)cc3)ccc21,-5%,?
O=C(CCCN1CCC2(CC1)C(=O)N(Cc1cccc(F)c1)CN2c1ccccc1)c1ccc(F)cc1,?,?
Cc1cc(C)c2c(c1)NC(=O)C2(O)CC(=O)c1cccs1 (stereo unspecified),2%,-4%
COc1ccc(C(=O)NCc2nnc(SCC(=O)N3CCC(C)CC3)o2)cc1OC,-6%,i
CCNC(=S)NNc1nc(N2CCOCC2)nc(N2CCOCC2)n1,-18%,i
S=C(c1ccc2c(c1)OCO2)N1CCCCC1,-5%,.
COc1cccc(CNC(=O)CN(c2ccc(C)cc2)S(=O)(=O)N(C)C)c1OC,5%,-2%
Cc1ccc(C(=O)Nc2ccc(SC(F)F)cc2)s1,-29%,-24%
COc1ccc2oc(C(=O)OCC(=O)N(CC(C)C)c3c(N)n(Cc4ccccc4)c(=O)[nH]c3=O)c(C)c2c1,-15%,-10%
Nc1nc2cc(Br)ccc2o1,-13%,i
C/C(=N\NC(=O)c1ccccc1Br)c1ccc(N2CCOCC2)cc1,-11%,i
C/C(=N/NC(=O)c1ccccn1)c1ccncc1,-13%,-11%
CCC(C)NC(=O)CN(c1ccc(OC)cc1)S(=O)(=O)c1ccccc1 (stereo unspecified),-6%,i
COc1ccccc1-n1c(O)c(C=Nc2c(C)n(C)n(-c3ccccc3)c2=O)c(=O)[nH]c1=O,-1%,-6%
CC(OC(=O)c1ccc(CN2CCCC2=O)cc1)C(=O)Nc1ccc(Cl)cc1 (stereo unspecified),-19%,i
O=C(N/N=C/c1cccs1)c1cccc(NC(=O)c2ccccc2Cl)c1,-12%,i
Cc1ccc(NC(=O)CN2C(=O)NC3(CCCCC3)C2=O)cc1S(=O)(=O)N1CCOCC1,1%,i
Cc1nc2ccc(S(=O)(=O)N3CCCCC3)cc2s1,-10%,-15%
COc1cc(/C=N/NC(=O)CNC(=O)c2ccco2)ccc1O,8%,11%
O=C(CSc1nnc(-c2cccnc2)s1)Nc1ccnc2ccccc12,-30%,?
Cc1nc(NCCN2CCOCC2)c2oc3ccccc3c2n1,-5%,i
O=C(NCc1ccc(F)cc1)c1c(O)nc2ccccn2c1=O,2%,-2%
Nc1nnc(CSCc2ccccc2)s1,8%,.
CC(C)CN(C(=O)CSc1nnc2c(Cl)cc(C(F)(F)F)cn12)C1CCS(=O)(=O)C1 (stereo unspecified),-3%,-14%
NS(=O)(=O)c1cc2c(cc1Cl)NC(C(Cl)Cl)NS2(=O)=O (stereo unspecified),-15%&-5%,-7%
CC(=O)Nc1ccc(Nc2nc3ccc(C)cc3n3nnnc23)cc1,-4%,-5%
COc1ccccc1CNC(=O)C(=O)NCC(c1ccco1)S(=O)(=O)c1ccc(F)cc1 (stereo unspecified),-16%,i
O=c1c2ccccc2nc(-c2ccc(Cl)cc2)n1CCCCOc1ccc(F)cc1,-9%,-3%
Cc1sc2nc(COC(=O)c3c(F)cccc3F)[nH]c(=O)c2c1C,-3%,-11%
Cc1ccnc2nc(NC(=O)c3ccccc3Cl)nn12,-11%,-15%
O=C1c2cccc3cccc(c23)C(=O)N1OS(=O)(=O)c1ccc(Cl)cc1,-4%,i
Cc1ccc(C(=O)NC(=S)c2c(C)cc3ccccn23)cc1,-20%,-12%
Cc1noc(C)c1S(=O)(=O)N(C)C[C@@H]1OCc2cn(nn2)CCCC(=O)N([C@@H](C)CO)C[C@H]1C,-4%,i
Cc1ccc(NC(=O)CN2C(=O)c3cccnc3Sc3ccccc32)c(Br)c1,-15%,-15%

# Taken from above:
# COc1cc(/C=N/NC(=O)CNC(=O)c2ccco2)ccc1O in VACV mCherry inh: 11%
# O=C1c2cccc3cccc(c23)C(=O)N1OS(=O)(=O)c1ccc(Cl)cc1 in Vaccinia Venus: -4%
# CC(=O)Nc1ccc(Nc2nc3ccc(C)cc3n3nnnc23)cc1 in Vaccinia Venus: -4%
# Cc1ccnc2nc(NC(=O)c3ccccc3Cl)nn12 in Vaccinia Venus: -11%
# Cc1ccc(NC(=O)CN2C(=O)c3cccnc3Sc3ccccc32)c(Br)c1 in VACV mCherry inh: -15%
# Nc1nnc(CSCc2ccccc2)s1 in Vaccinia Venus: 8%

# Full records as entered above:
# NS(=O)(=O)c1cc2c(cc1Cl)NC(C(Cl)Cl)NS2(=O)=O (stereo unspecified) as listed: Vaccinia Venus = -15%&-5%; VACV mCherry inh = -7%
# Cc1ccc(NC(=O)CN2C(=O)NC3(CCCCC3)C2=O)cc1S(=O)(=O)N1CCOCC1 as listed: Vaccinia Venus = 1%; VACV mCherry inh = i
